AID504770: E. coli YBA685 growth inhibition, screen for V. cholerae RctB inhibitors. E. coli YBA685 rctB-dependent plasmid, OD600 growth, 3 h; stronger effect = lower value. z-score (concentration not given with the values). 130,000 compounds, 0.27% hits;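 active = z-score under -2 on both plates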;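 also: wells of about 30 µL received 100 nL stock; score is relative to mean and SD of the test wells; the first replicate is given; strong numbers were not always called active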
CapD inh: blocks the Bacillus anthracis CapD enzyme | purified CapD enzyme, fluorescence intensity read-out; stronger effect = lower value; some hits fall short of the stated cut | z-score (test concentration not listed) | 140,000 compounds, 0.23% hits | AID 492967;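 active = z-score under -4 in either of two replicates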;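 also: stock transfer was 100 nL into about 40 µL; score is relative to mean and spread of the plate; one replicate is shown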
The depositor's hits bear a star; x = no result given. Outcome played no part in choosing rows; 0.41% or so of the library scored in one or more.

mol	AID504770	CapD inh
C=CCN=Cc1c(O)n(-c2ccccc2)c(=S)n(-c2ccccc2)c1=O	x	-0.5
CCN(CC)C(=O)C12CC3CCC1(C)C3(C)CO2 (stereo not drawn)	x	-0.04
CC1CCC(C(C)C)C(OC(=O)COC(=O)c2ccncc2)C1 (stereo not drawn)	-0.45	x
Cc1c(C(=O)Nc2c(F)cccc2F)sc2ncnc(N3CCN(c4ccccn4)CC3)c12	x	0.13
N#CC1=C(N)n2ncnc2NC1c1ccc(F)cc1 (stereo not drawn)	-0.8	24
Cc1onc(-c2ccccc2)c1NC(=O)N(C)C1CCCCC1	0.15	0.09

Nothing new here: entries from further up.
mol	AID504770	CapD inh
C=CCN=Cc1c(O)n(-c2ccccc2)c(=S)n(-c2ccccc2)c1=O	x	-0.5
CCN(CC)C(=O)C12CC3CCC1(C)C3(C)CO2 (stereo not drawn)	x	-0.04

Reprinted at random: 2 entries already listed, in no set order.
mol	AID504770	CapD inh
Cc1c(C(=O)Nc2c(F)cccc2F)sc2ncnc(N3CCN(c4ccccn4)CC3)c12	x	0.13
N#CC1=C(N)n2ncnc2NC1c1ccc(F)cc1 (stereo not drawn)	-0.8	24

Screening results deposited in PubChem BioAssay by ICCB-Longwood Screening Facility, Harvard Medical School.
